Ab BasE inh: blocks the Acinetobacter baumannii siderophore enzyme BasE. purified BasE, fluorescence polarization binding displacement. inhibition, % (concentration not given with the values). actives 0.1% (n = 84,000). AID 485350;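 active = both replicates above 25% with normal brightness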;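 also: 0% = negative plate control signal and 100% = positive plate control signal; stock transfer was 100 nL into about 30 µL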
LANA-nucl inh: LANA-nucleosome interaction inhibition | FITC-LANA1-23 / chicken nucleosome fluorescence polarization; stronger effect = lower value | z-score (test concentration not listed) | actives 0.3% (n = 51,000);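 active = both repeat wells score below -2 in polarization z-score versus plate sample wells, excluding overly bright wells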;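 also: 100 nL library stock added to about 30 µL; numbers are from one replicate; some results filed as inactive read as strong as hits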
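Material: Purified chicken nucleosomes with FITC-labelled LANA N-terminal peptide (1-23) | Reagent: 50 nM FITC-LANA1-23 probe | Medium: TEN-BT buffer, pH 7.5 | Times: 10–45 min incubation at room temperature | Detection: Fluorescence polarization | Replication: Duplicates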
Numbers without * were called inactive; x = not tested or not shown; & = joins results of further samples. A portion of the library. The share of hits here may be higher or lower than overall.

Every second line gives: Ab BasE inh | LANA-nucl inh
- CCn1c(C(=O)N2CCCC(C(=O)NC(C)C34CC5CC(CC(C5)C3)C4)C2)cc2sccc21 (configuration not stated)
→ 0.7 | 0.25
- CCN1C(=O)/C(=C/C=C2/Sc3ccccc3N2CC)SC1=S
→ -2.8 | x
- CN(Cc1nc2ccccc2c(=O)[nH]1)Cc1nc2scc(-c3cccs3)c2c(=O)[nH]1
→ 1.0 | x
- CCc1ccc(C(=O)CN2C(=O)C(C)N(c3ccc(C)cc3)C2=O)cc1 (configuration not stated)
→ -0.6 | x
- Cc1cc(-c2csc(-c3ccccc3)n2)c(C)n1-c1cccc(S(=O)(=O)N2CCOCC2)c1
→ -5.3 | x
- CC(C)OCC(O)Cn1c(N2CCCCCC2)nc2c1c(=O)n(C)c(=O)n2C (configuration not stated)
→ -2.7 | 0.81
- Fc1cccc(-c2csc(COc3ccccc3Cl)n2)c1
→ 0.9 | x
- C=CCn1c(=O)[nH]c(=O)n(CC=C)c1=O
→ 0.8 | -0.64
- CC(C)C(c1nnnn1Cc1ccccc1)N1CCN(c2ccccc2)CC1 (configuration not stated)
→ 0.3 | -0.84
- Cc1cc(NC(=O)C2CCCCC2)no1
→ -1.3 | -0.84
- Cc1onc(-c2ccccc2Cl)c1C(=O)NCC1CCN(C(=O)OC(C)(C)C)CC1
→ 0.4 | 0.8
- O=C(CSc1nc2ccccc2n1CCc1ccccc1)c1cccs1
→ 0.1 | x
- c1ccc2c(OCCCCCn3ccnc3)cccc2c1
→ 1.8 | x
- O=C(CCC(=O)N1CCN(S(=O)(=O)c2ccccc2)CC1)Nc1ccc2c(c1)OCCO2
→ 2.6 | x
- Cc1cccc(NC(=O)CN2c3cccc4cccc(c34)S2(=O)=O)c1
→ -1.1 | x
- Cc1cc(=O)[nH]c(-c2ccc(C(F)(F)F)cc2)n1
→ -0.4 | -0.24
- C=CCOc1ccc(C(=O)N2CCc3ccccc3C2)cc1
→ -1.8 | -0.47
- Clc1cc2c(cc1Cl)Nc1cc(Cl)c(Cl)cc1N2
→ 7.2 | -1.6
- Cc1ccc(C(O)c2cccnc2)o1 (configuration not stated)
→ 15 | x
- CN1C(=O)C(C)(C)c2cc(S(=O)(=O)N(C)CC(=O)NCc3cccs3)ccc21
→ 0.3 | 2.5
- CC1CCN(C(=O)COC(=O)c2ccccc2O)CC1
→ 1.8 | x
- Cc1ccc(C2C=C(C34CC5CC(CC(C5)C3)C4)NC(=S)N2)cc1 (configuration not stated)
→ 1.1 | x
- CC(C)c1ncc2c(n1)-c1cc(Cl)ccc1SC2
→ 0.0 | x
- Cc1nn(CC(=O)N2CCCC2)c(C)c1NC(=O)c1cnn2c1NC(c1ccco1)CC2C(F)(F)F (configuration not stated)
→ 0.0 | -0.18
- COc1ccc2c(c1)CCC(C)N2C(=O)Nc1ccc(OC)c(OC)c1 (configuration not stated)
→ 0.2 | -0.29
- CCOC(=O)N1CCN(C(=O)c2ccc(/C=C3\Oc4ccccc4NC3=O)cc2)CC1
→ -1.9 | -0.64
- CN(C)S(=O)(=O)c1cccc(CN2CCCc3ccccc32)c1
→ 0.0 | x
- O=c1cc(CSc2nnc(COc3ccccc3)o2)c2ccccc2[nH]1
→ -2.9 | -0.61
- Cc1cc(C)c2ccc(=O)cc-2o1
→ -4.8 | 0.56
- C=CCNc1nc(C(=O)OCc2nnc(-c3ccc(Br)cc3)o2)cs1
→ 0.8 | x
- CN(C1CCCCC1)S(=O)(=O)c1ccc(SCC(=O)NC2CC2)nc1
→ 0.6 | x
- O=C(CN1CCc2ccccc2C1)N1N=C(c2ccc(Cl)cc2)CC1c1ccco1 (configuration not stated)
→ 0.6 | x
- CSc1nnc(NC(=O)Cc2ccccc2)s1
→ 1.4 | -0.51
- CCC(C)C(=O)Nc1cccc(C(=O)O)c1 (configuration not stated)
→ 2.2 | 0.046
- CC1CCCCN1C(=O)CSc1nnc2c(Cl)cc(Cl)cn12 (configuration not stated)
→ 15 | x
- NNC(=O)C1CCS(=O)(=O)C1 (configuration not stated)
→ 1.6 | x
- CCn1c(=O)c2cc(C(=O)N3CCC4(CC3)OCCO4)sc2c2ccccc21
→ -2.5 | 0.59
- Cc1nc2ccc(NC(=O)Nc3ccccc3)cc2o1
→ 0.6 | -0.22
- CCc1ccccc1NNC(=O)c1snnc1C
→ -0.3 | 0.36
- O=C(CCn1cnc2ccccc21)N/N=C/c1ccccc1
→ 3.8 | 0.28
- CCc1nc2ccc(C(=O)NC(C)C)cc2nc1CC
→ 0.6 | -0.23
- O=C(NC1=NCCS1)c1ccccc1
→ -1.1 | 0.11
- Cc1cccc(N2CCN(CC(=O)c3ccc4cc[nH]c4c3)CC2C)c1 (configuration not stated)
→ -0.4 | -0.001
- CN(C(=O)CSc1nnc(Cc2cccs2)n1CCc1ccccc1)c1ccccc1
→ 2.2 | x
- CCOC(=O)C1=C(CSc2nnnn2-c2ccccc2)NC(=O)NC1C (configuration not stated)
→ -0.1 | x
- COC(=O)Nc1nc2ccc(SC(C)C)cc2[nH]1
→ -2.6 | -0.65
- c1ccc2nc3c(nc2c1)sc1nc2ccccc2n13
→ 2.1 | 0.12
- CCN(CC)S(=O)(=O)c1ccc(N2CC(C(=O)Nc3nc4ccccc4s3)CC2=O)cc1 (configuration not stated)
→ -3.9 | x
- FC(F)(F)c1cc(C#CCN2CCCC2)cc(C(F)(F)F)c1
→ x | 0.95
- O=C(NCCN1CCOCC1)NC(=O)c1ccccc1
→ -0.4 | 0.035
- CC1CCCCN1S(=O)(=O)c1ccc2c(c1)C(C)(C)C(=O)N2C (configuration not stated)
→ 1.3 | 0.58
- CC(C)Nc1ccc(Nc2ccnc3cc4ccccc4cc23)cc1
→ 4.9 | x
- O=C(NCCc1ccccc1)c1noc2c1CCCC2
→ 0.7 | x
- Cc1ccc(/C=c2/sc3nc(=O)cnn3c2=O)cc1
→ 1.4 | -0.27
- Cc1ccc2nc(N3CCN(C=O)CC3)nc(-c3ccccc3)c2c1
→ 2.5 | -0.8
- O=C(Nc1nncs1)C1c2ccccc2Oc2ccccc21
→ 0.4 | -0.82
- O=c1[nH]cnc2c1ncn2[C@@H]1C[C@@H](O)[C@H](CO)O1
→ 1.2 | x
- Cn1c(C(=O)O)c(CNC2CCCCC2)c2ccccc21
→ 1.9 | 0.86
- O=C(NS(=O)(=O)c1ccc(N=NN2CCOCC2)cc1)C12CC3CC(CC(C3)C1)C2
→ 4.0 | 0.21
- CCCS(=O)(=O)/C(C#N)=C/c1sccc1Oc1ccccc1
→ -1.2 | x

2 entries from above, set out differently.
SMILES | Ab BasE inh | LANA-nucl inh
O=C(NS(=O)(=O)c1ccc(N=NN2CCOCC2)cc1)C12CC3CC(CC(C3)C1)C2 | 4.0 | 0.21
Cc1cc(NC(=O)C2CCCCC2)no1 | -1.3 | -0.84

Other entries follow.
Every second line gives: Ab BasE inh | LANA-nucl inh
- CC1(C)Cc2c(c3ccccc3n2-c2ccccc2)C(C)(C)N1
→ -1.6 | x
- COc1cc2c(cc1OC)C(C)N(C(=O)Nc1ccccc1)CC2 (configuration not stated)
→ -0.3 | x
- Cc1ccc(SCCNC(=O)c2cccnc2Oc2ccccc2)cc1
→ -0.1 | x
- CSc1nc2c(c(C(F)(F)F)n1)CC(C)CC2 (configuration not stated)
→ 0.7 | 0.46
- N#C/C(=C\c1cccnc1)C(=O)OCc1ccccc1
→ 3.2 | -0.33
- O=C(Nc1cccs1)Nc1nnc(C2CC2)s1
→ -0.6 | x
- C=CCc1cccc(C2Nc3ccccc3C(=O)N2O)c1O (configuration not stated)
→ 1.2 | -0.36
- Cc1[nH]c2ccc(C(=O)O)cc2c1C(C)C
→ -0.9 | -0.21
- COc1ccc(Cn2c(O)c(/C=N/Nc3nc(C)cc(=O)[nH]3)c3ccccc3c2=O)cc1
→ -18 | x
- Clc1c(C=NCc2ccco2)sc2ccccc12
→ 1.4 | x
- O=C1Cc2cc(C(=O)CSc3nnc(-c4ccccn4)c(-c4ccccn4)n3)ccc2N1
→ -1.7 | 0.17
- c1coc(-c2ccnc3ncnn23)c1
→ x | -0.65
- CC(=O)c1sc2nsc(SCCN3CCCC3)c2c1N
→ x | 2.3
- CCN1CCN(CCCNC(=O)C2c3ccccc3C(=O)N(CCOC)C2c2cn(C)c3ccccc23)CC1 (configuration not stated)
→ 1.7 | 0.5
- CCOc1nc(NC(C)(C)CO)nc(OCC)n1
→ 1.6 | x
- Cc1cc2nc(N3CCN(S(=O)(=O)c4ccccc4)CC3)c3ccccc3n2n1
→ -0.9 | x
- N=c1c2c3c(sc2nc2n1CCCCC2)CCCCC3
→ 0.6 | 0.1
- O=C(NC1CCCC1)c1ccc(Br)o1
→ -2.3 | x
- Cc1cc(C)n(-c2ccc(C(=O)OCC(=O)Nc3sc4c(c3C(N)=O)CCC4)cc2)n1
→ 2.3 | x
- COc1cc(C(=O)NN)c(-n2c(C)ccc2C)cc1OC
→ 1.1 | x
- c1ccc(CCc2nn3cnnc3s2)cc1
→ -2.6 | 0.23
- COc1ccc(NC(=O)CN=C2NS(=O)(=O)C(c3ccc(F)cc3)=C2C)cc1
→ 2.0 | 0.62
- CCN(CC)S(=O)(=O)c1ccc2nc(Cc3ccccc3)[nH]c2c1
→ -3.5 | x
- COC(NC(=O)Nc1nc2ccccc2s1)(C(F)(F)F)C(F)(F)F
→ 0.1 | x
- N#C/C(C(=O)NCc1ccco1)=C1/SC=C(c2ccccc2)N1c1ccccc1
→ -2.5 | 2.6
- NC(=O)Nc1ccc(C(=O)OCC(=O)NCc2ccccc2)cc1
→ 0.2 | x
- C/C(=N/OCC(=O)Nc1sc2c(c1C#N)CCCC2)c1cccs1
→ -3.0 | 0.27
- O=C(O)COCC(=O)Nc1ccccc1-c1ccccc1
→ 1.3 | -0.47
- NN(CCC(=O)N1CCCCC1)C1=NS(=O)(=O)c2ccccc21
→ 0.6 | 0.28
- Cc1nnc(SCC(=O)c2cc(C)n(-c3ccc4c(c3)OCO4)c2C)n(N)c1=O
→ 0.5 | x
- COC(=O)C(C)(C)ON1C(=O)c2ccccc2C1=O
→ 1.6 | -0.76
- CCOC(=O)c1cnc(S/C=C/C(=O)c2ccc(C)cc2)nc1N
→ 1.1 | x
- CC1CCC/C(=C/c2ccc(Cl)cc2)C1=O (configuration not stated)
→ -0.6 | x
- Cc1c(C)c(C)c(S(=O)(=O)/N=C/N(C)C)c(C)c1C
→ 0.3 | x
- CCOc1ccc2nc(N3CCCC3)sc2c1
→ 1.7 | 0.6
- CCN(C(=O)Cc1c(C(=O)O)[nH]c2ccccc12)c1ccccc1
→ 3.4 | -0.54
- O=c1[nH]c(O)c(N=Nc2ccc(S(=O)(=O)N3CCCCC3)cc2)c(=O)[nH]1
→ -0.8 | -0.31
- CCn1c(SCC(=O)Nc2ccc(OC)cc2)nnc1C1CC1
→ -2.5 | -0.95
- Cc1cccc(N=C2CNC(=O)NC2=O)c1
→ -0.8 | -0.33
- CN(C)c1nc(OCCNC(=O)COc2ccccc2Cl)nc(N(C)C)n1
→ -0.1 | -0.83
- COc1ccc2oc(=O)c3c(c2c1)CC(C(F)(F)F)S3 (configuration not stated)
→ 1.8 | x
- CCOC(=O)c1c(COC(=O)/C=C/c2ccc(C)o2)nc2ccccc2c1C
→ 2.8 | x
- Cc1nc2cc(-c3ccccc3)nn2c(C)c1Sc1nccc(-c2cccnc2)n1
→ 0.8 | x
- Cc1ccccc1Nc1nc(N)nc(CSCC(=O)NC2CCCc3ccccc32)n1 (configuration not stated)
→ 0.7 | x
- COc1ccc(CCNCc2cccn2-c2c(C(=O)O)cnn2-c2ccccc2)c(OC)c1
→ -2.2 | -0.01
- CCC1(C)Cc2ccccc2-c2c1c(=O)n(-c1ccc(C)cc1)c1nnnn21 (configuration not stated)
→ 1.8 | -0.42
- Cc1cccc(C(=O)Nc2cccc(-c3ccc(N4CCN(C)CC4)nn3)c2)c1
→ -12 | 0.88
- CC(Sc1nnc(N)s1)c1nc2ccccc2c(=O)[nH]1 (configuration not stated)
→ -0.6 | -1
- NC(=O)N1CCCC1
→ 2.4 | x
- N#Cc1c(N)oc(-c2cccs2)c1-c1cccs1
→ 1.2 | x
- CS(=O)(=O)c1ncc(Cl)c(C(=O)NCc2ccccc2)n1
→ 0.4 | 0.71
- O=S(=O)(c1ccc(F)c(F)c1)N(c1ccc2c(c1)OCO2)S(=O)(=O)c1ccc(F)c(F)c1
→ 1.1 | x
- O=C(CN1CCN(c2cccc(Cl)c2)CC1)Nc1nccs1
→ -0.9 | -0.0055
- Cc1onc(-c2ccccc2)c1C(=O)Nc1cccc(C(F)(F)F)c1
→ 0.3 | x
- CCC1OC(=O)[C@H](C)C(=O)[C@H](C)[C@@H](OC2O[C@H](C)C[C@H](N(C)C)[C@H]2O)[C@](C)(OC)C[C@@H](C)C(=O)[C@H](C)[C@H]2N(CCCCn3cnc(-c4cccnc4)c3)C(=O)OC12C (some centres not stated)
→ 0.4 | 0.58&-1.1
- CC(C)(C)OC(=O)Nc1ccc(-c2ccn[nH]2)cc1
→ -0.7 | -0.18
- CC1CCc2c(sc3ncn4c(=S)[nH]nc4c23)C1 (configuration not stated)
→ -0.1 | -0.57
- Cc1nc(C(F)(F)F)ccc1NC(=O)NCCNc1cccc(C(F)(F)F)n1
→ -0.3 | x
- Cc1[nH]n(-c2ccccc2)c(=O)c1C=Nc1ccc(O)cc1
→ 53* | x
- O=C(O)CN(CCc1ccccc1)CC(=O)O
→ 1.6 | x
- CCC(SC1=NCCS1)C(=O)Nc1ccc(NC(C)=O)cc1 (configuration not stated)
→ -2.7 | -0.075

Record cards, as listed above.
CCOC(=O)c1c(COC(=O)/C=C/c2ccc(C)o2)nc2ccccc2c1C across the screens: Ab BasE inh: 2.8; LANA-nucl inh: x
CCC1OC(=O)[C@H](C)C(=O)[C@H](C)[C@@H](OC2O[C@H](C)C[C@H](N(C)C)[C@H]2O)[C@](C)(OC)C[C@@H](C)C(=O)[C@H](C)[C@H]2N(CCCCn3cnc(-c4cccnc4)c3)C(=O)OC12C (some centres not stated) across the screens: Ab BasE inh: 0.4; LANA-nucl inh: 0.58&-1.1
